Assay outcomes (PubChem)
SARS PLP yeast – blocks SARS-CoV papain-like protease in a yeast assay. S. cerevisiae expressing SARS-CoV PLpro, growth rescue; control for the full effect not named in the record. Potency, µM (top dose mostly 32.9 µM), inactives show top-dose activity, positive = growth rescue. actives 0.19% (n = 330,000); active means well fitted rising curve with a large enough effect; inconclusive means small, poorly fitted or top-dose-only effect; inactive means no such curve, though single readings can be large or run the other way; also: 0% is about no effect; nearly all actives have a fitted effect of over 55% in size; growth read by luminescence after 48 h
NS1 inh – blocks influenza NS1 protein function. Potency, µM (doses to about 46.1 µM), for the others: top-dose activity, positive = more growth. AID 2326. actives 0.4% (n = 270,000). S. cerevisiae slowed by influenza A NS1, growth recovery by OD600; active means well fitted rising curve with a large enough effect; inconclusive means small, poorly fitted or top-dose-only effect; inactive means no such curve, though single readings can be large or run the other way; also: nearly all actives have a fitted effect of over 50% in size
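A cell-based growth assay was used: compounds that relieve NS1-induced slow growth of budding yeast raise OD600. Assay medium was yeast nitrogen base with ammonium sulphate and -URA supplement, pH 6.0, with 2% galactose.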
LASV entry inh – blocks Lassa virus binding to or entry into cells; Lassa virus pseudotype entry inhibition, cell reporter; control for the full effect not named in the record; Potency, µM (highest dose often 37.9 µM), inactives show top-dose activity change, negative = inhibition, actives largely listed as inhibitors; actives 1.2% (n = 300,000); active means well fitted inhibition curve with a large enough effect; inconclusive means small, poorly fitted or top-dose-only effect, or effect the other way; inactive means flat fitted curve, though single readings scatter; tested in HEK293 cells; also: % is scaled to controls: 0 for no effect and ±100 for the full control effect; nearly all actives have a fitted effect of over 50% in size; luciferase read-out
StopGo reporter – lowers the luciferase signal of an FMDV 2A StopGo reporter; Potency, µM (doses to about 57.9 µM), for the others: top-dose signal change, negative = less light; human cells with a luciferase reporter of 2A StopGo recoding; control for the full effect not named in the record; AID 1159524; actives 1.2% (n = 410,000); active = well fitted falling curve with a large enough effect; inconclusive = small, poorly fitted or top-dose-only effect; inactive = no such curve, though single readings can be large or run the other way; tested in HEK293T cells; also: % is scaled to controls: 0 for no effect and ±100 for the full control effect; nearly all actives have a fitted effect of over 45% in size; luciferase light after 4 h
RE007 growth inh – less growth of the S. pombe RE007 Vpr strain; S. pombe RE007 Vpr strain, BacTiter-Glo ATP luminescence, 24 h; control for the full effect not named in the record; Potency, µM (top dose mostly 92.2 µM), for inactives: top-dose activity change, negative = less growth; actives 0.21% (n = 360,000); AID 651644; active = well fitted falling curve with a large enough effect; inconclusive = small, poorly fitted or top-dose-only effect; inactive = no such curve, though single readings can be large or run the other way;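 also: % is scaled to controls: 0 for no effect and ±100 for the full control effect; nearly all actives have a fitted effect of over 50% in size; the assay follows cell death caused by Vpr and the record does not say whether a fall means rescue or toxicity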
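Fission yeast strain RE007, carrying one chromosomally integrated HIV-1 vpr copy, was seeded at OD 0.01 in PMG+AL medium with 23 nL pinned compound. After 24 h at 30 °C and 99% humidity, viability was read by BacTiter-Glo luminescence.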
Cruzain inh Det – cruzain (T. cruzi) inhibition with detergent; purified cruzain, Z-FR-AMC fluorescence, 0.01% Triton; Potency, µM, for the others: max response, negative = inhibition, hits mostly inhibitors; actives 0.43% (n = 200,000); AID 1478;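 also: plate controls were neutral wells for no effect and buffer without enzyme for full effect; nearly all actives have a fitted effect of over 40% in size; top concentration of the series not given in the record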
Target sequence (P25779 123-467 limits assumed): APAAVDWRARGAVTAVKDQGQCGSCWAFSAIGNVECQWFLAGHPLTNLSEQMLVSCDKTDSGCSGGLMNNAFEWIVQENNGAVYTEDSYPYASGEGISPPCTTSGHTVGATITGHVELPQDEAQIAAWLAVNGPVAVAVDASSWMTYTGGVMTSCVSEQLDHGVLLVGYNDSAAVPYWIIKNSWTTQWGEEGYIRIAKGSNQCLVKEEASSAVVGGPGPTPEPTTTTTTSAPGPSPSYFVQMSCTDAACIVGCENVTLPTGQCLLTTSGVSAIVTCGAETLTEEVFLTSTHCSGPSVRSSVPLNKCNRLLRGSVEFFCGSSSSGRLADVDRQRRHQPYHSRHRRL
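Steps: dispense cruzain (1.5 nM final) in acetate buffer pH 5.5 with DTT and 0.01% Triton X-100; pin-transfer compounds; incubate 15 min RT; add Z-FR-AMC (2 uM final); read fluorescence every 30 s, using the 60 s intensity change.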
MARV entry inh – inhibitors of Marburg virus binding or cell entry | Marburg virus pseudotyped entry inhibition, cell reporter; control for the full effect not named in the record; about a third of the inactives were read at about 46 µM | Potency, µM (titrated, usually from 37.8 µM), for inactives: at the highest dose activity change, negative = inhibition, hits mostly inhibitors | actives 1.8% (n = 300,000) | AID 540276; active = well fitted inhibition curve with a large enough effect; inconclusive = small, poorly fitted or top-dose-only effect, or effect the other way; inactive = flat fitted curve, though single readings scatter; tested in HEK293 cells; about a fifth of its hits are not listed in these tables; also: % is scaled to controls: 0 for no effect and ±100 for the full control effect; luciferase read-out
Cruzain noTriton – blocks cruzain activity in detergent-free assay; P25779; purified cruzain, Z-FR-AMC fluorescence, no detergent; Potency, µM, without a hit: max response, negative = inhibition, hits mostly inhibitors; actives 2.3% (n = 200,000); AID 1476;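 also: plate controls were enzyme without inhibitor for no effect and buffer without enzyme for full effect; nearly all actives have a fitted effect of over 40% in size; top concentration of the series not given in the record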
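Detergent-free condition (0.00005% Triton X-100) in acetate buffer pH 5.5 with DTT. 1.5 nM enzyme and compound were pre-mixed 15 min, then 2 uM Z-FR-AMC substrate added; reaction progress from fluorescence change between first and third reads (60 s).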
* = called active by the depositor; ? = inconclusive; . = not tested or not shown; [ ] = another dose, or the depositor's remark. Unless noted, calls follow the shape of the dose curve; as a rule, active = well fitted curve in the direction sought with a large enough effect; inconclusive = small, poorly fitted or top-dose-only effect, or another doubt; inactive = no such curve, though single readings can be large; an effect the other way counts as inactive or inconclusive. Potency is read from the fitted curve at half-maximal effect.

SMILES	SARS PLP yeast	NS1 inh	LASV entry inh	StopGo reporter	RE007 growth inh	Cruzain inh Det	MARV entry inh	Cruzain noTriton
CCc1nnc(NC(=O)CCN(c2cc(C)cc(C)c2)S(=O)(=O)c2ccc(Cl)cc2)s1	-5%	12%	-1%	-5%	17%	-1.5%	24%	-1%
COC(=O)c1c(NC(=O)CCC(=O)O)sc2c1CCCCC2	-4%	-8%	9%	0%	-3%	-6.4%	?	-8%
O=C(COC(=O)C1=COCCO1)NC1CCCCC1	-2%	.	25%	16%	13%	.	27%	.
O=C1CC2(CCN(C(=O)C3CC(=O)N(c4ccccc4)C3)CC2)Oc2ccccc21 (stereo unspecified)	-1%	.	0%	?	-29%	.	13%	.
O=C(NCCC1=CCCCC1)c1cc2ccccc2oc1=O	0%	-4%	.	0%	8%	.	.	.
COC(=O)c1c(NC(=O)CSc2ncnc3ccccc23)sc(C)c1C	.	.	?	-20%	-3%	.	3%[46.1 µM]	.
CC1(C)C2SCC(=O)N2CCN1CC(=O)NN (stereo unspecified)	1%	-1%	27%	15%	4%	.	9%[46.1 µM]	.
CCOC(=O)c1cc(-c2ccc(Cl)s2)nc2c1c(C)nn2C	-3%	-7%	.	.	.	13%	.	?
CCn1c(Cc2ccccc2)nnc1SCC(=O)Nc1ccc(C)cc1	2%	-1%	1%	.	-1%	-0.6%	-19%	14%
CCCCOC(=O)CSCC(=O)Nc1cc(C)on1	6%	2%	19%	-15%	-5%	5.4%	2%	5%
O=C(CN(CCc1ccccc1)Cc1ccccc1)Oc1ccccc1P(=O)(O)O	1%	6%	?	-18%	0%	.	7%[46.1 µM]	.
CC(C)[C@H](NC(=O)[C@H](CCCN=C(N)N)NC(=O)NC(Cc1ccccc1)C(=O)O)C(=O)NC(C=O)CCCN=C(N)N (stereo partly specified)	8%	-4%	-1%	-7%	1%[18.4 µM]	0.035µM*	?	0.032µM*
CCN(CC(=O)Nc1ccc(C(C)=O)cc1)CC(=O)Nc1cccc(OC)c1	1%	.	8%	0%	2%	.	9%	.
C=CCNC(=O)c1cccc(OC2CCN(CC(C)(C)C)CC2)c1	2%	-7%	.	-15%	-8%	.	.	.
O=C1NCCN1C(=O)c1ccccc1F	3%	7%	2%	-16%	6%	-2.7%	-2%	-4%
C=CCc1cccc(/C=C/c2cc(=O)c3ccccc3[nH]2)c1O	?	9%	?	-8%	4%	-2.1%	?	-15%
CNC(=O)/C=C/c1cc(C(=O)c2ccc(Cl)cc2Cl)cn1C	1%	-7%	.	-4%	1%	.	.	.
S=C(Nc1ccc(Oc2ccccc2)cc1)N1CCOCC1	-4%	-9%	-19%	34%[activator]	0%	.	-2%	.
O=C(NCCc1ccccc1)N1CCCC(CNS(=O)(=O)Cc2ccccc2)C1 (stereo unspecified)	1%	-5%	-1%	45%[activator]	2%	.	?	.
CN1C(=O)NC(NC(=O)c2ccncc2)(C(F)(F)F)C1=O (stereo unspecified)	3%	-1%	?	11%	10%	0.1%	13%	9%
Cc1cccc(NS(=O)(=O)c2cc3c4c(c2)CC(=O)N4CCC3)c1C	1%	11%	.	7%	-5%	.	.	.
CCCN1C(=O)SC(CC(=O)Nc2ccc(Br)cc2)C1=O (stereo unspecified)	-19%	-54%	?	?	7%	-6.1%	-8%	-11%
CCS(=O)(=O)c1ccc2oc(SCC(=O)NC3CCCC(C)C3C)nc2c1 (stereo unspecified)	26%	?	-3%	0%	8%	-4.7%	-18%	9%
O=C(O)c1ccccc1C(=O)Nc1ccc(Oc2ccccc2)cc1	-1%	2%	3%	21%	-2%	.	1%[46.1 µM]	.
O=c1c(-c2ccccc2)c[nH]n1-c1cccc([N+](=O)[O-])c1	-4%	-4%	-12%	-27%	-14%	.	?	.
CN1C(=O)c2ccccc2Sc2ccc(NC(=O)COc3ccccc3)cc21	.	.	?	-23%	.	-2.7%	.	-3%
O=C(NC(=S)Nc1cccc2ncccc12)c1ccccc1	2%	.	2%[46.1 µM]	0%	-4%	.	3%[46.1 µM]	.
CSc1ccccc1NC(=O)Nc1cccc(Cl)c1	-8%	-15%	6%	35%[activator]	-23%	-4.2%	11%	-8%
COc1ccc(N2CSC3=C(C#N)C(c4cccc(OC)c4OC)CC(=O)N3C2)cc1 (stereo unspecified)	0%	-34%	.	-5%	-8%	-16%	.	6%
Cc1nc(C)n(CC(O)COc2ccc(C(=O)c3ccccc3)cc2)n1 (stereo unspecified)	-1%	-9%	2%	?	0%	7.7%	2%	-3%
CNC(=O)COc1coc(CN2CCN(c3ccc(F)cc3)CC2)cc1=O	-2%	1%	.	1%	-15%	.	.	.
CCOC(=O)c1c(/N=C/c2cccc(C)c2O)sc2c1CCN(C)C2	17%	3%	23%	1%	-5%	-3.6%	4%	9%
COc1cc(C(=S)N2CCCCC2)ccc1OCC(=O)Nc1ccccc1Cl	0%	.	?	-10%	3%	.	?	.
CCOc1ccc2nc(NS(=O)(=O)c3ccc(NC(C)=O)cc3)sc2c1	0%	1%	-9%	109%[activator]	1%	-0.6%	17%	-5%
CCn1c(SCC(=O)N2CCCC2)nc2ccccc2c1=O	1%	-6%	1%	-3%	-1%	4.6%	2%	-2%
Cc1c(NC(=O)C(C)OC(=O)Cc2ccccc2)c(=O)n(-c2ccccc2)n1C (stereo unspecified)	6%	-7%	10%	8%	8%	-1.7%	21%	1%

Just MARV entry inh, Cruzain inh Det and NS1 inh, for 2 of the compounds above:
canonical_smiles | MARV entry inh | Cruzain inh Det | NS1 inh
O=C(NC(=S)Nc1cccc2ncccc12)c1ccccc1 | 3%[46.1 µM] | . | .
CSc1ccccc1NC(=O)Nc1cccc(Cl)c1 | 11% | -4.2% | -15%

Other entries:
SMILES	SARS PLP yeast	NS1 inh	LASV entry inh	StopGo reporter	RE007 growth inh	Cruzain inh Det	MARV entry inh	Cruzain noTriton
COc1ccc(S(=O)(=O)Nc2ccccn2)c(C)c1C	-4%	-3%	14%	59%[activator]	3%	6.9%	2%	-3%
CN1CCN(C(CNC(=O)c2ccc(Br)o2)c2ccc(F)cc2)CC1 (stereo unspecified)	2%	.	2%[46.1 µM]	5%	-16%	.	?	.
O=C(Nc1nc(-c2ccccc2)cs1)C1COc2ccccc2O1 (stereo unspecified)	-3%	-9%	-8%	-13%	?	-2.9%	5%	25µM*
CCCCn1c(SCC(=O)c2ccccc2)nc2c1c(=O)[nH]c(=O)n2C	4%	1%	-1%	?	-6%	-0.4%	?	-1%
COc1ccc(-c2csc(N(CCCN3CCOCC3)C(=O)c3ccco3)n2)cc1	-3%	-33%	?	-15%	0%	-8.8%	?	-5%
Clc1ccc(-c2[nH]ncc2N=Nc2ccccc2)cc1	-8%	9%	.	14%	?	.	.	.
CSc1ccccc1C(=O)N(C)C(c1ccccc1)c1ccccc1	-8%	-34%	13%[46.1 µM]	?	-4%	.	?	.
CSc1nnc(C)c(/C=C/Nc2ccc(F)cc2)n1	-1%	-30%	-21%	-42%	-11%	-8.1%	-3%	?
CCN(CC)CC(=O)N1N=C(c2cccs2)CC1c1ccco1 (stereo unspecified)	3%	4%	-3%	2%	-13%	3.3%	-22%	-4%
CN(C(=O)c1ccccc1)c1ccc(OCC(=O)NC2CCS(=O)(=O)C2)cc1 (stereo unspecified)	1%	9%	6%	.	6%	5.8%	-4%	-2%
Cc1ccc(NC(=O)C2CC(=O)N/C(=N/N=C/c3ccco3)S2)cc1C (stereo unspecified)	-6%	?	-11%	-6%	4%	-2.9%	-28%	13µM*
Cc1ccc(NC(=O)CN2CCN(S(=O)(=O)c3cccs3)CC2)cc1S(=O)(=O)N(C)C	1%	.	?	-14%	-14%	.	?	.
O=C1N(CC(=O)N2CCc3ccccc32)CCN1Cc1ccccc1Cl	5%	-13%	17%	0%	19%	-1.8%	-3%	-8%
Cc1nc2ncnn2c(C)c1CCC(=O)N1CCN(c2ccc(F)cc2)CC1	.	.	20%[46.1 µM]	-1%	.	1.6%	8%[46.1 µM]	-2%
O=C(Nc1ccc(C(=O)N2CCN(c3ccccc3)CC2)cc1)c1nsc2ccccc12	.	.	24%[46.1 µM]	-1%	.	-1.0%	.	-29%
CCc1ccc(/C=N/NC(=O)C(=O)NCCCN2CCOCC2)cc1	-5%	-1%	11%	-5%	17%	-3.5%	-2%	-2%
O=[N+]([O-])c1ccc(/C=N/Nc2nc(N3CCCCCC3)nc(N3CCCCCC3)n2)o1	-48%	2%	?	?	-12%	-4.1%	?	6%
Cc1cc(C)nc(SCC(=O)c2ccc(F)c(C)c2)n1	-3%	-17%	.	16%	6%	.	.	.
CCc1nn(C(C)C(=O)NC(C)CCc2ccco2)c(=O)c2cc3occc3n12 (stereo unspecified)	4%	11%	2%	2%	-9%	-7.7%	-12%	-4%
Cc1csc(OCC(=O)Nc2ccc(C)c(C)c2)n1	8%	?	2%	8%	7%	6.3%	0%[46.1 µM]	8%
Cc1ccccc1OCC(=O)OCC(=O)c1ccc(-c2ccccc2)cc1	25%	-1%	15%	20%	-4%	-4.2%	-17%	-23%
COc1ccc(-c2nnc3c4ccccc4c(-c4ccccc4)nn23)cc1	.	.	2%[46.1 µM]	-13%	.	0.8%	?	-5%
Cc1ccc(S(=O)(=O)N(C)C)cc1NC(=O)COc1ccccc1C(=O)Nc1ccccc1	-4%	.	?	-6%	1%	.	?	.
CCCC(=O)NC(NC1CCS(=O)(=O)C1)C(Cl)(Cl)Cl (stereo unspecified)	-1%	-4%	17%	-8%	-11%	.	28%[46.1 µM]	.
Cc1ccc(S(=O)(=O)C(CNC(=O)C(=O)NCc2ccc(Cl)cc2)c2ccco2)cc1 (stereo unspecified)	.	.	4%[46.1 µM]	-9%	.	-2.1%	.	6%
C=CCn1c(COc2ccc(F)cc2)nnc1SCC(=O)c1c[nH]c2c(CC)cccc12	-3%	4%	-1%	-10%	7%	4.2%	-7%	-4%
COCC(=O)N1CCN(c2cccc(C(F)(F)F)c2)CC1	1%	3%	.	2%	-1%	.	.	.
